GIV Gai3 FP = blocks GIV peptide binding to rat Galpha-i3; actives 0.42% (n = 210,000); Galpha-i3/FITC-GIV peptide fluorescence polarization, 90 min; active compounds read low; scaled: aluminum fluoride 0%, vehicle 100%; AID 1224905; P08753; percent of control (FP), % (no concentration beside the values);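 active means replicate mean at 85% of control or lower, very high polarization wells dropped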;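 further: wells of about 15 µL received 100 nL stock; the first replicate is given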
Target sequence (P08753 whole entry, looked up): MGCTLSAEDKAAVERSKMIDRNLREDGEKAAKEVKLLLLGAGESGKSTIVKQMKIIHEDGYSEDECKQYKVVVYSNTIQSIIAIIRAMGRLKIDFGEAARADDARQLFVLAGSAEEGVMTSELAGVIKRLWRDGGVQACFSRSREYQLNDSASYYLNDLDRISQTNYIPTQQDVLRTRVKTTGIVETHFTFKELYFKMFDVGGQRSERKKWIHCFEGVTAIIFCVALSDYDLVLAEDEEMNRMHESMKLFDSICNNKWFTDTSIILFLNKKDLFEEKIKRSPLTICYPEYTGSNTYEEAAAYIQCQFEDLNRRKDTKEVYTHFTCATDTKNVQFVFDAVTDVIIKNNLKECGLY
Sa growth 42C = S. aureus growth inhibition; S. aureus RN4220 growth, OD600, 20 h, 42 °C; active compounds read low; relative growth, % (test concentration not listed); actives 0.53% (n = 170,000); AID 720641;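 active means growth at 42 °C up to 50% and 20 or more points under that at 30 °C, or under 10% at both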;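 further: 300 nL library stock went into each well; scaled to the means of positive and negative controls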
HCMV UL50-53 inh = inhibitors of HCMV UL50-UL53 nuclear egress complex interaction; HTRF UL50-UL53 interaction, normalized percent inhibition; inhibition, % (concentration not given with the values); actives 0.15% (n = 190,000);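 active means both replicates at 50% or more, plus weaker picks with an unusually low signal ratio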;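 further: stock transfer was 100 nL into about 20 µL; 0% = negative control wells and 100% = wells with untagged competitor protein; inactives centre near -12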
Sa growth 42C second temp = recorded beside Sa growth 42C, whose call it bears; relative growth, %; measured here: growth at 30 °C;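 optical density after 20 h as mean of two plates; 100% = untreated growth and lower means inhibition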
* marks the source's active call; other numbers are inactive results; / = not tested or not shown; & = joins results of further samples.

SMILES | GIV Gai3 FP | Sa growth 42C | Sa growth 42C second temp | HCMV UL50-53 inh
Cc1ccc2oc(=O)c3cnn(CC(=O)Nc4ccccc4C)c3c2c1 | 100 | 104 | 84 | -3
CC(NC(=O)c1ccc[nH]c1=O)c1ccc(Cl)cc1Cl (stereo unspecified) | / | 110 | 97 | 8
O=S(=O)(c1ccc2c(c1)CCCC2)N1CCCC(c2nc(-c3ccc(Br)cc3)no2)C1 (stereo unspecified) | 105 | / | / | -10
COCCn1c(SCC(=O)c2c(C)[nH]c3ccccc23)nc2cc(C(=O)NC(C)C)ccc2c1=O | 101 | 75 | 85 | /
CCC(CC)C(=O)Nc1c(-c2ccccc2)nc2cc(C)ccn12 | 102 | 130 | 87 | /
NC1CCN(c2cccc(Cl)n2)CC1 | / | 97 | 86 | -3&-18
CN(C)C(=O)N1CCC(C(=O)NCCC2=CCCCC2)CC1 | 97 | 106 | 83 | /
Cc1ccc(C)c(NC(=O)C2CCCN(C(=O)c3cnn(-c4ccccc4)c3-n3cccc3)C2)c1 (stereo unspecified) | 103 | 108 | 77 | /
Cc1cccc(NC(=O)CN2C(=O)CSc3ccc(S(=O)(=O)N4CCCC4)cc32)c1C | 104 | 121 | 95 | /
CCc1ccc(N(CC)C(=O)Cc2c(C(=O)O)n(CC)c3ccccc23)cc1 | 98 | / | / | 0
CCN(CC)c1ccc2cc(C(N)=O)/c(=N\NC(=O)c3ccccc3)oc2c1 | -47* | 85 | 80 | -65
COc1ccc(-c2nc(C)c(CCNC(=O)c3cccc(C)c3)s2)cc1OC | 94 | 96 | 87 | /
NC1=NC(=O)/C(=C\c2ccc3c(c2)OCO3)S1 | / | 98 | 93 | -11
Cc1cc(-n2c(C)cc(C(=O)CSc3ccc(F)c(F)c3)c2C)no1 | / | 122 | 94 | -3
O=C(CSc1nnc(C2COc3ccccc3O2)n1-c1ccccc1)c1cccc([N+](=O)[O-])c1 (stereo unspecified) | 99 | / | / | -41
CCOC(=O)c1cnn(C(=O)c2cccc3ccccc23)c1N | 102 | 85 | 91 | -81
c1ccc(CCNc2nc(-c3ccccc3)no2)cc1 | 103&102 | 91 | 96 | 10&-7
COC(=O)Cn1cnc2sc(C)c(S(=O)(=O)N3CC(C)CC(C)C3)c2c1=O (stereo unspecified) | 109 | 93 | 90 | /
CCCCOc1ccc(CNC(=O)c2cc3n(n2)CCCN(Cc2ccc(C)cc2)C3=O)cc1 | 99 | 82 | 86 | /
Cc1cccc(-n2c(C)c(C)c3c2ncn2nc(-c4ccc(F)cc4)nc32)c1 | 111 | / | / | -12
O=S(=O)(c1ccccc1)c1nc(Cc2ccccc2)oc1N1CCOCC1 | 101 | 101 | 80 | /
FC(F)(F)c1cccc(Nc2nnnn2C2CCCC2)c1 | / | 87 | 89 | -24
CCN(CC)C(=O)Cn1c(=O)n(-c2ccc(Cl)cc2)c(=O)c2c3c(sc21)CCCCC3 | 106 | 103 | 87 | -3
Cc1ccc(C)c(CN2C(=O)c3ccccc3Sc3ccc(C(=O)NCc4ccco4)cc32)c1 | 102 | 92 | 95 | /
Clc1ccccc1OCc1nnc(-c2ccccc2Cl)o1 | 97 | 108 | 102 | 1
CCCCN(CC)C(=O)CSc1c2c(nc3ccc(Cl)cc13)CCCC2 | 99 | 106 | 87 | -21
COC(=O)c1sc2nc(-c3ccco3)cc(C(F)(F)F)c2c1N | 102 | 87 | 78 | -43
Cc1ccc(C(=O)CSc2nnc(-c3ccccc3)n2-c2ccccc2)cc1 | 109 | 96 | 94 | -31
c1ccc(-c2cc(-c3ccco3)c(-c3ccccc3)nn2)cc1 | 98 | 97 | 84 | -35
Cc1ccc(C2C(=O)c3ccccc3C2=O)cc1 | 104 | 109 | 104 | -2
CCOC(=O)C1C(=O)CC(C)(O)C(C(=O)OCC)C1/C=C/c1ccccc1 (stereo unspecified) | 104 | 91 | 96 | /
CCCOC(=O)c1cc(-c2ccc(/C=C3\C(=O)N(c4cccc(C(=O)O)c4)N=C3C)o2)ccc1Cl | 100 | / | / | -9
COC(=O)c1ccc(Cn2nnc3sc4c(c3c2=O)CCC(C)C4)cc1 (stereo unspecified) | 99 | 110 | 91 | -20
Cc1cccc(NC(=O)CSc2ncnc3nc(N4CCC(C)CC4)sc23)c1C | 105 | / | / | -24
Cn1c(=O)c2c(-c3ccc(Br)cc3)n(Cc3ccco3)cc2n(C)c1=O | 103 | 79 | 84 | -16
COc1cccc(NC(=O)c2oc3ccccc3c2NC(=O)c2ccccc2C)c1 | 111 | 111 | 98 | -14
COc1ccc(-c2noc(=O)[nH]2)cc1 | 100 | 87 | 82 | -15
NNC(=O)CSc1ccc(Cl)cc1 | / | 102 | 94 | -16
Cc1csc(=O)n1CC(=O)NC1CCC(C)CC1 (stereo unspecified) | / | 100 | 96 | -10
Cc1ccc(S(=O)(=O)NCCNc2nccc(C(F)(F)F)n2)cc1 | 104 | 82 | 87 | -20
CCOc1ccc(NC(=O)C(C)n2c(=O)cc(-c3ccccc3)c3c(C)nn(C)c32)cc1 (stereo unspecified) | 103 | 98 | 88 | /
Cc1cc(/C=C/c2ccc(OCC(O)CNC(C)C)cc2)on1 (stereo unspecified) | / | 96 | 89 | -66
O=C(O)CSCc1cnn(-c2ccccc2)c1-n1cccc1 | 99 | 102 | 99 | -18
CCOC(=O)C1=C(N)OC2=C(C(=O)CC(c3ccccc3)C2)C1c1ccc(OC)cc1OC (stereo unspecified) | 105 | / | / | -21
FC(F)(F)c1cc(-c2noc(CN3CCOCC3)n2)cc(C(F)(F)F)c1 | 88 | 79 | 80 | -15

Rewritten field by field: four of the compounds above
NNC(=O)CSc1ccc(Cl)cc1
  GIV Gai3 FP: /	Sa growth 42C: 102	Sa growth 42C second temp: 94	HCMV UL50-53 inh: -16

Cc1csc(=O)n1CC(=O)NC1CCC(C)CC1 (stereo unspecified)
  GIV Gai3 FP: /	Sa growth 42C: 100	Sa growth 42C second temp: 96	HCMV UL50-53 inh: -10

Cc1ccc(S(=O)(=O)NCCNc2nccc(C(F)(F)F)n2)cc1
  GIV Gai3 FP: 104	Sa growth 42C: 82	Sa growth 42C second temp: 87	HCMV UL50-53 inh: -20

CCOc1ccc(NC(=O)C(C)n2c(=O)cc(-c3ccccc3)c3c(C)nn(C)c32)cc1 (stereo unspecified)
  GIV Gai3 FP: 103	Sa growth 42C: 98	Sa growth 42C second temp: 88	HCMV UL50-53 inh: /

(list continues)
SMILES | GIV Gai3 FP | Sa growth 42C | Sa growth 42C second temp | HCMV UL50-53 inh
O=S(=O)(Nc1ccccc1F)c1ccc2[nH]c3c(c2c1)CCCC3 | 100 | 124 | 83 | /
COc1ccccc1NC(=O)Oc1ccc2ccncc2c1 | / | 105 | 98 | -2
CCn1nnc(-c2cc(Cl)cc(Cl)c2)n1 | 98 | 110 | 63 | -2
O=C(O)c1cccc(N(CCO)CCO)c1 | 101 | 94 | 108 | -12
Cc1sc2nc(SCC(=O)NCCCn3ccnc3)[nH]c(=O)c2c1C | 105 | / | / | -8
COc1ccccc1C(=O)NCc1ccc2c(c1)cc(C)n2C | 104 | 91 | 75 | -10
COCCNC(=O)C(=O)NCC(c1ccc2c(c1)OCO2)N1CCOCC1 (stereo unspecified) | 95 | 104 | 97 | /
COc1ccc(NCc2cc3cc4c(cc3n(CC(=O)Nc3ccc(C)cc3C)c2=O)OCO4)cc1 | 101 | 99 | 88 | /
Cc1cc(SCC(=O)NCc2ccc(F)cc2)nc(=O)[nH]1 | 106 | 122 | 86 | /
CCc1ccc(S(=O)(=O)Nc2cc3c(cc2N2CCOCC2)n(C)c(=O)c(=O)n3C)cc1 | 106 | 87 | 83 | /
COc1ccc(NC(=O)C(NC(=O)C2CCC(C)CC2)C(C)C)cc1 (stereo unspecified) | 108 | 96 | 92 | -9
COC(=O)CCC(=O)Nc1nccs1 | / | 66 | 89 | -6
Cc1oc(C(C)(C)C)cc1-c1cc(NC(=O)c2ccccc2)n(C)n1 | 107 | 116 | 89 | 2
CCCCn1c(-c2nn(C)cc2Cl)n[nH]c1=S | 99 | 85 | 77 | -33
CS(=O)(=O)Nc1cc(NS(C)(=O)=O)cc(C(=O)O)c1 | / | 88 | 88 | -16
CC1CCN(S(=O)(=O)c2ccc3c(c2)oc(=O)n3CC(=O)NCc2ccc(F)cc2)CC1 | 106 | 112 | 80 | 20
CSc1ccc(NC(=O)NCc2ccccc2)cc1 | 108 | 98 | 92 | -30
O=C(NCCS(=O)(=O)NC1CCCCC1)c1ccccc1 | 109 | 104 | 104 | -16
CC1CCN(S(=O)(=O)c2ccc3c(c2)c(=O)c(C(=O)N(C)Cc2ccccc2)cn3C)CC1 | 102&101 | 111 | 92 | -26
Cn1c(=O)c(=O)n(C)c2cc(S(=O)(=O)CCC(=O)Nc3cccnc3)ccc21 | 104 | 109 | 89 | 2
COc1cc(/C=C2/NC(=S)NC2=O)cc(Br)c1OC(=O)C12CC3CC(CC(C3)C1)C2 | 109 | / | / | -10
NC(=O)COC(=O)c1ccccc1Nc1ccccc1 | / | 103 | 97 | -6
COc1cccc(C2C(=O)N(C3CCCCC3)CC(=O)N2Cc2ccc(Cl)cc2)c1 (stereo unspecified) | 105 | 108 | 88 | /
Cc1cc(-c2ccc(C)c(S(=O)(=O)N3CCC(CN4CCc5ccccc5C4)CC3)c2)on1 | 102 | / | / | 5
O=c1[nH][nH]c2c1CCCC2 | 107 | 113 | 104 | 19
COc1ccc(-n2ccn(Cc3ccc(C)cc3)c(=O)c2=O)cc1OC | 93 | 89 | 83 | -55
COc1ccc(CCC(=O)NC2CC(=O)N(c3cccc(F)c3)C2)cc1 (stereo unspecified) | 103 | 118 | 98 | /
CC1(C(=O)NC2CCCC2)Cn2c(cc3ccsc32)C(=O)N1Cc1ccc(Cl)cc1 (stereo unspecified) | 104 | / | / | -31
CNC(=O)NC(=O)CSc1nnc(-c2ccc(C(C)(C)C)cc2)n1C | / | 86 | 98 | -6
CN(C(=O)C1=CC(c2ccco2)=NS(=O)(=O)N1C)c1ccccc1 | 101 | 73 | 78 | -91
Cc1cc(C)cc(-n2c(SCC(N)=O)nc3c([nH]c4ccccc43)c2=O)c1 | 102 | 82 | 50 | /
CC(C)(CN1CCC(Cc2ccccc2)CC1)NS(=O)(=O)c1ccccc1 | / | 111 | 73 | -22
Cc1ccc(C2C(/C=c3/sc4nc5ccccc5n4c3=O)=C(c3ccccc3)Oc3ccccc32)cc1 (stereo unspecified) | 103 | / | / | -16
COc1ccc(CCC(=O)NCCc2csc(-c3ccc(Cl)cc3)n2)cc1 | 113 | 94 | 96 | /
CCOC(=O)Cn1c2ccc(C)cc2c2nc3ccccc3nc21 | 102 | / | / | 0
Fc1ccc(Nc2nnns2)cc1 | 94 | 88 | 86 | -25
Cc1ccc(Cn2c(C(=O)O)c(CNC3CC3)c3ccccc32)cc1 | 103 | 113 | 90 | /
CCc1nnc(NC(=O)CN(CC)CC)s1 | / | 98 | 98 | 6
CC1(C)CC(=O)C(C(=S)Nc2ccccc2)=C(NCc2ccccc2)C1 | 101 | 114 | 83 | /
CCN1C(=O)Cc2cc(NC(C)=O)ccc21 | 106 | / | / | 0
CCOC(=O)c1nc(-c2ccccc2)oc1N(C)C | / | 101 | 87 | -14
O=C(N/N=C/C=C/c1ccccc1)c1ccncc1 | 112 | 95 | 98 | -38
CC(C)Cc1nn2c(=O)cc(O)nc2s1 | 105 | 101 | 89 | -28
COc1ccc(N2C(=O)CC(N(C)CCc3ccc(OC)c(OC)c3)C2=O)cc1 (stereo unspecified) | 108 | / | / | 8
Cc1ccc2cccc(NC(=O)C(C)Oc3ccc(C)c(C)c3)c2n1 (stereo unspecified) | 104 | 94 | 80 | -6

Structural class, those above with a tert-butyl group.
SMILES | GIV Gai3 FP | Sa growth 42C | Sa growth 42C second temp | HCMV UL50-53 inh
Cc1oc(C(C)(C)C)cc1-c1cc(NC(=O)c2ccccc2)n(C)n1 | 107 | 116 | 89 | 2
CNC(=O)NC(=O)CSc1nnc(-c2ccc(C(C)(C)C)cc2)n1C | / | 86 | 98 | -6

(continued)
SMILES | GIV Gai3 FP | Sa growth 42C | Sa growth 42C second temp | HCMV UL50-53 inh
O=S(=O)(CCSc1nccc(-c2ccc(Cl)cc2)n1)c1ccc(Cl)cc1 | 103 | 109 | 84 | -35
CCCC(=O)N1CCN(c2nnc(-c3ccc(C)cc3)c3ccccc23)CC1 | 100 | 75 | 73 | -15
COc1cccc(NS(=O)(=O)c2ccc3[nH]cc(C(=O)NCc4ccccc4)c(=O)c3c2)c1 | 102 | 136 | 84 | -1
O=C(CSc1ncc(-c2ccccc2)n1CC1CCCO1)Nc1nccs1 (stereo unspecified) | 101 | 108 | 36 | -7
FC(F)(F)c1nnc2c3ccccc3nc(-c3ccccc3)n12 | 100 | 72 | 1 | -4
CC(C)c1ccc(OCc2ccc(C(=O)Nc3cccnc3)o2)cc1 | 104 | 78 | 79 | -36
COC(=O)c1ccccc1NC(=O)c1ccc(-n2nc(C(F)(F)F)c3c2-c2ccoc2CC3)cc1 | 96 | 121 | 90 | /
CC(C)C(=O)Nc1c(C(=O)N2CCN(Cc3ccccc3)CC2)oc2ccccc12 | 102 | 104 | 96 | 11
O=C(c1sc2ccccc2c1Cl)N1CCCC1 | / | 132 | 87 | -2

High-throughput results from PubChem.
